# High-throughput results from PubChem.
# Ecoli growth = E. coli growth inhibition | Escherichia coli growth, OD600, 23 h; active compounds read low | OD600 absorbance (concentration not given with the values) | 330,000 compounds, 0.21% hits;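 active means OD600 absorbance below the run mean of sample wells minus 3.6 SD, in any replicate, cut at about 0.56 in these data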;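 further: stock transfer was 300 nL into about 60 µL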
# Beta apoptosis = beta cell apoptosis inhibition; INS-1E cytokine-induced death, ATP luminescence, 48 h; percent of positive-control rescue, neutral wells zero; protection from apoptosis, % (test concentration not listed); 300,000 compounds, 0.8% hits;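 active means all replicates at 75% or more, or half of them and the mean; inconclusive means half reach 75% but not the mean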;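 further: 0% = cytokine-treated negative control wells and 100% = positive control rescue; higher means more ATP so stronger rescue from cytokine killing; wells of about 40 µL received 100 nL stock; the first replicate is given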
# Ecoli rRNA inh = selective bacterial rRNA inhibition in E. coli | E. coli WT GFP vs humanized-ribosome RFP mutants, fluorescence, 24 h; active compounds read low; DMSO median 0, no signal -100 | GFP signal change (wild-type ribosome), % (test concentration not listed) | 350,000 compounds, 1.6% hits | AID 720706;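 active means significant combined selectivity score with lowered wild-type GFP, culture density cut under 30%, mutant RFP and density less affected; inactive means any of these conditions unmet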; further: one replicate is shown; some compounds called inactive have numbers as strong as hits
# A1 inh = inhibitors of the anti-apoptotic protein A1, read as caspase activation | MEF A1-2A-BIM cells, Caspase-Glo 3/7 luminescence, 3 h; percent of clofoctol response, vehicle zero | caspase activation, % (test concentration not listed) | 330,000 compounds, 0.066% hits | AID 2462;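 active means over half of replicate activation scores above 10%, or exactly half above 10 with the replicate mean above 10; inconclusive means replicate mean below 10 yet half the replicates above 10; inactive means over half of replicates below 10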;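 further: wells of about 30 µL received 50 nL stock; many hits fall short of the cut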
# UCH37 inh = inhibitors of human deubiquitinating enzyme UCH37; Q9Y5K5; 330,000 compounds, 0.33% hits; purified proteasome/UCH37, Ub-AMC cleavage fluorescence; inhibition, % (no concentration beside the values); AID 588478;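 active means mean of two replicates above 20%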;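 further: 0% = compound-free wells with enzyme and 100% = wells lacking proteasome; stock transfer was 100 nL into about 20 µL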
# Target sequence (Q9Y5K5 whole entry, looked up): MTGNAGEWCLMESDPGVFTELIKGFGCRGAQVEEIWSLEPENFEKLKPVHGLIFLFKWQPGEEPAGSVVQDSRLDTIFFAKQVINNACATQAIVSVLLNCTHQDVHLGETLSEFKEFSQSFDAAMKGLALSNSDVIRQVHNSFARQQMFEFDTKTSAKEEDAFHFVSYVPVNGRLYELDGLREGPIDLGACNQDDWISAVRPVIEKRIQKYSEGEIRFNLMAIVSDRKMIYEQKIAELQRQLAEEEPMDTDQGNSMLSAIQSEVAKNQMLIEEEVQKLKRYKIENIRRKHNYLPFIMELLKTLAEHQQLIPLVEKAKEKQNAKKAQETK
#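 Material: Human UCH37 enzyme supplied as purified proteasome complex | Schedule: 30 min compound-proteasome preincubation then 25 min substrate reaction, room temperature | Detection: AMC fluorescence from Ub-AMC cleavage, excitation 355 nm, emission 460 nm | Benchmarks: Wells without proteasome as full block, compound-free enzyme plus substrate as uninhibited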
# T cruzi repl = T. cruzi replication inhibition; inhibition, % (concentration not given with the values); 300,000 compounds, 1.4% hits; AID 1885; T. cruzi beta-gal in NIH3T3, luminescence, 90 h;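 active means mean inhibition across valid replicates above about 55%, limit read from the data; inconclusive means mean below that limit but half or more replicates reach it; inactive means mean below it, under half of replicates reach it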;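 further: signal also drops with host cell toxicity which is not excluded here; 0% = plate median of DMSO wells and 100% = zero luminescence signal; higher percent means less beta-gal luminescence so fewer parasites; stock transfer was 50 nL into about 50 µL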
# FGF22 binding = FGF22 (human) thermal shift binding. Q9HCT0. recombinant FGF22 thermal shift, SYPRO orange fluorescence; percent of sucrose octasulfate shift, DMSO zero. calls only at 9.99 µM. 340,000 compounds, 1.5% hits. AID 651658;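 active means melting point raised past a set limit in the mean and every replicate; inconclusive means no clear call; three in four hits are not shown here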
# Target sequence (Q9HCT0 whole entry, looked up): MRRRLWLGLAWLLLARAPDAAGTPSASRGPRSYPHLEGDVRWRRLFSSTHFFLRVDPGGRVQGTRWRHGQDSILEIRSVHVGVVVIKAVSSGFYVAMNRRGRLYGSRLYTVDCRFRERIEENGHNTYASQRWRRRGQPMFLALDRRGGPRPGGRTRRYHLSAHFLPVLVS
# MLL AF4-AF9 inh = inhibitors of human MLL-AF4/AF9 interaction; AlphaScreen, biotin-AF4 peptide binding to FLAG-AF9; inhibition, % at 10 µM; AID 651704; P42568; 350,000 compounds, 0.47% hits;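 active means every replicate reaching a set inhibition limit, whatever the replicate mean, cut at about 25% in these data; inconclusive means mean inhibition reaches that limit but some replicates miss it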;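 further: 0% = plate neutral control median and 100% = total signal loss; the record names both 10 and 1 µM as test concentration; the first replicate is given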
# Target sequence (P42568 whole entry, looked up): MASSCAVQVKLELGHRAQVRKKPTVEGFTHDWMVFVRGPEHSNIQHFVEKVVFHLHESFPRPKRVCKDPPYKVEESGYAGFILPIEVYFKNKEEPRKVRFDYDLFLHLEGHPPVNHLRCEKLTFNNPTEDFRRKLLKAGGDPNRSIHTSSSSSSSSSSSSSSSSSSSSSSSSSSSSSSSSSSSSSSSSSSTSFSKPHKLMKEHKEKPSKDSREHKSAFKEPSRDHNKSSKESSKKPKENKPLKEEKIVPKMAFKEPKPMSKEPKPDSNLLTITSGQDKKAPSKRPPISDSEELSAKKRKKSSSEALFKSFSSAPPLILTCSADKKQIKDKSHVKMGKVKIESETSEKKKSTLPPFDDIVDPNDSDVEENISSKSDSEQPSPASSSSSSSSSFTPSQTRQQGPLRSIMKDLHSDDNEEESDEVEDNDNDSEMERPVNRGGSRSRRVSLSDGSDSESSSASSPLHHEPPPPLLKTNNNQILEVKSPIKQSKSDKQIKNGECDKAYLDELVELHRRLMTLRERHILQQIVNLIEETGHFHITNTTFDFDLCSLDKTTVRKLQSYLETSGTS
# Ecoli rRNA inh OD600 = second read-out of Ecoli rRNA inh, no call of its own (marks repeat the call); OD600 change, %; measured here: OD600 growth;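 optical density of the mix in the first replicate; 0 = DMSO median and -100 = no signal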
# Ecoli rRNA inh RFP = further read-out of Ecoli rRNA inh, marked with its call; RFP signal change, %; measured here: RFP humanized mutant strains;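 first replicate; 0 = DMSO median and -100 = no signal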
# The depositor's hits bear a star; i = inactive; ? = inconclusive; . = no result given; & = joins results of further samples. Not all compounds are listed, so the mix of outcomes need not match the whole.
# Results follow in this order: Ecoli growth, Beta apoptosis, Ecoli rRNA inh, Ecoli rRNA inh OD600, Ecoli rRNA inh RFP, A1 inh, UCH37 inh, T cruzi repl, FGF22 binding, MLL AF4-AF9 inh
1. Cc1ccc(-n2c(SCC(=O)NC3CCS(=O)(=O)C3)nc3ccccc3c2=O)cc1C (centres undefined)
 : 0.657, -5.7, -1.3, -2.0, -2.0, 0.6, 5.9, 1.5, i, -0.9
2. CC1CCCN(C(=O)C(=O)c2cn(CC(=O)N3CCCCCC3)c3ccccc23)C1 (centres undefined)
 : 0.676, 0.0, 1.4, 20.5, 10.9, -0.1, 1.5, 61.9*, i, 0.9
3. CCOC(=O)N1CCC(NC(=O)CCC(=O)N2CC(C)Oc3ccccc32)CC1 (centres undefined)
 : 0.739, 2.7, ., ., ., 0.5, -4.1, -0.1, ., .
4. COc1ccc(C2=CSC3=NCCN23)cc1OC
 : 0.702, -3.7, 20.4, 10.1, 5.3, -0.4, 0.5, -1.9, i, -2.2
5. Cc1ccccc1OCC(=O)OCC(=O)NC1CC1
 : 0.65, 2.4, 10.2, 11.7, 0.3, 0.0, 4.4, ., i, 0.2
6. CCCCCCNC(=O)CC(c1ccccc1)c1cc(Br)ccc1O (centres undefined)
 : 0.722, 5.0, ., ., ., 0.0, 2.2, 10.0, ., .
7. COc1ccc(C(=O)/C=C/Nc2ccc(C)cn2)cc1OC
 : 0.706, 1.2, ., ., ., -3.6, -36.5, -4.3, ., .
8. Nc1cccc(C(=O)OCC(=O)NC2CCCc3ccccc32)c1 (centres undefined)
 : 0.677, -1.2, -11.1, -3.5, -6.5, -0.1, -7.5, -9.3, i, -6.2
9. O=C(Oc1ccc(Br)cc1C(=S)N1CCOCC1)c1ccc(F)cc1
 : 0.692, ., ., ., ., 1.4, 3.5, -9.7, ., .
10. N#Cc1ccc(CC(=O)c2ccccc2)[nH]c1=O
 : 0.67, ., 50.0, 8.8, 42.6, ., 0.5, ., i, -1.3
11. COCCn1c(=O)[nH]c2cc(C(=O)Nc3ccc(OC)c(Cl)c3)ccc2c1=O
 : 0.73, -2.3, ., ., ., 0.7, 3.8, -2.3, ., .
12. CCOC(=O)c1oc2c(c1C)C(=O)CCC2
 : 0.696, -5.4, ., ., ., -0.5, -0.1, -24.5, ., .
13. CCCNC(=O)c1ccc2c(c1)nc(C)n2-c1cccc(Cl)c1
 : 0.655, -6.2, -10.1, -11.7, -1.6, 1.3, 0.4, 5.1, i, 0.7
14. O=C(Nc1ccccc1C(=O)O)c1ccc2ccccc2n1
 : 0.709, -3.8, ., ., ., -10.5, 3.1, -14.2, ., .
15. Cc1ccc(C)c(S(=O)(=O)/N=C2\C=C(NS(=O)(=O)c3ccccc3)C(=O)c3ccccc32)c1
 : ., 1.0, -2.1, -21.4, 0.7, -0.7, ., -9.0, i, -0.7

# 11 entries from above, sorted by length of the SMILES, largest number first.
# Results follow in this order: Ecoli growth, Beta apoptosis, Ecoli rRNA inh, Ecoli rRNA inh OD600, Ecoli rRNA inh RFP, A1 inh, UCH37 inh, T cruzi repl, FGF22 binding, MLL AF4-AF9 inh
15. Cc1ccc(C)c(S(=O)(=O)/N=C2\C=C(NS(=O)(=O)c3ccccc3)C(=O)c3ccccc32)c1
 : ., 1.0, -2.1, -21.4, 0.7, -0.7, ., -9.0, i, -0.7
1. Cc1ccc(-n2c(SCC(=O)NC3CCS(=O)(=O)C3)nc3ccccc3c2=O)cc1C (centres undefined)
 : 0.657, -5.7, -1.3, -2.0, -2.0, 0.6, 5.9, 1.5, i, -0.9
2. CC1CCCN(C(=O)C(=O)c2cn(CC(=O)N3CCCCCC3)c3ccccc23)C1 (centres undefined)
 : 0.676, 0.0, 1.4, 20.5, 10.9, -0.1, 1.5, 61.9*, i, 0.9
3. CCOC(=O)N1CCC(NC(=O)CCC(=O)N2CC(C)Oc3ccccc32)CC1 (centres undefined)
 : 0.739, 2.7, ., ., ., 0.5, -4.1, -0.1, ., .
9. O=C(Oc1ccc(Br)cc1C(=S)N1CCOCC1)c1ccc(F)cc1
 : 0.692, ., ., ., ., 1.4, 3.5, -9.7, ., .
13. CCCNC(=O)c1ccc2c(c1)nc(C)n2-c1cccc(Cl)c1
 : 0.655, -6.2, -10.1, -11.7, -1.6, 1.3, 0.4, 5.1, i, 0.7
8. Nc1cccc(C(=O)OCC(=O)NC2CCCc3ccccc32)c1 (centres undefined)
 : 0.677, -1.2, -11.1, -3.5, -6.5, -0.1, -7.5, -9.3, i, -6.2
7. COc1ccc(C(=O)/C=C/Nc2ccc(C)cn2)cc1OC
 : 0.706, 1.2, ., ., ., -3.6, -36.5, -4.3, ., .
14. O=C(Nc1ccccc1C(=O)O)c1ccc2ccccc2n1
 : 0.709, -3.8, ., ., ., -10.5, 3.1, -14.2, ., .
10. N#Cc1ccc(CC(=O)c2ccccc2)[nH]c1=O
 : 0.67, ., 50.0, 8.8, 42.6, ., 0.5, ., i, -1.3
4. COc1ccc(C2=CSC3=NCCN23)cc1OC
 : 0.702, -3.7, 20.4, 10.1, 5.3, -0.4, 0.5, -1.9, i, -2.2

# The results go on.
# Results follow in this order: Ecoli growth, Beta apoptosis, Ecoli rRNA inh, Ecoli rRNA inh OD600, Ecoli rRNA inh RFP, A1 inh, UCH37 inh, T cruzi repl, FGF22 binding, MLL AF4-AF9 inh
16. CCCCN(C)CCNC(=O)c1cn(C)c(=O)c2c1c1ccccc1n2C
 : 0.673, -7.7, 0.2, 1.6, 4.6, 0.8, -82.3, 3.9, i, -2.3
17. COc1cc(S(=O)(=O)N(Cc2cccnc2)Cc2ccco2)ccc1-n1cnnn1
 : 0.708, -9.8, -8.8, -6.8, -1.2, -0.6, -2.0, 12.6, i, -1.5
18. COc1ccc(-c2ccc(NS(=O)(=O)c3cc([N+](=O)[O-])c(C)c([N+](=O)[O-])c3)cc2)nn1
 : 0.696, 1.7, -17.4, -19.2, -4.6, 4.7, 2.2, -4.5, i, -4.7
19. CCN(c1ccccc1)S(=O)(=O)c1ccc(C(=O)NCCCN2CCOCC2)cc1
 : 0.626, -3.8, 2.8, 6.5, -0.5, 1.6, 1.4, ., i, 0.2
20. O=Cc1ccc2oc3nc4n(c(=O)c3c(=O)c2c1)CCCS4
 : 0.648, -2.5, ., ., ., 1.1, 5.3, -2.5, ., .
21. Cc1noc(C)c1NC(=O)Nc1ccc2c(c1)C(=O)N([C@H](C)CO)C[C@H](C)[C@@H](CN(C)C(=O)Nc1ccccc1)O2
 : 0.718, ., 5.3&6.3, 7.2&7.7, -1.2&1.1, ., 1.5, ., i, -0.4
22. CC(=O)N1c2ccc(S(=O)(=O)N3CCCC3)cc2CC1C(=O)NCc1cccc(F)c1 (centres undefined)
 : 0.717, ., 2.7, 0.7, 0.2, -0.9, 0.7, -3.1, i, 0.9
23. CC(=O)Nc1ccc(N(CC(=O)NCC2CCCO2)C(=O)CCC(=O)Nc2cc(C)on2)cc1 (centres undefined)
 : 0.683, -0.4, 1.1, 0.9, -0.8, 0.0, -3.2, -5.8, i, -1.6
24. CCCCN(C(=O)CCSc1ccc(F)cc1)c1c(N)n(Cc2ccccc2)c(=O)[nH]c1=O
 : 0.661, -7.5, 4.7, 2.3, 0.2, -0.3, -1.4, -4.1, i, 0.7
25. O=[N+]([O-])c1ccc(-c2cn3c(n2)SCC3)cc1
 : 0.649, -1.4, 6.9, 8.7, 3.5, -1.7, 3.9, -5.3, i, -1.8
26. NC1=NC(=O)/C(=C\c2ccc(O)c([N+](=O)[O-])c2)S1
 : 0.646, 3.9, 6.5, 11.8, 0.5, -0.1, 23.6*, -10.1, i, -1.5
27. CC1=C(C#N)C(C(F)(F)F)(C(F)(F)F)N=C(c2ccco2)N1
 : 0.686, 101.2*, ., ., ., 0.2, 3.6, -6.7, ., .
28. CCCCC(SCC(=O)Nc1ccccc1)C(=O)O (centres undefined)
 : 0.696, ., ., ., ., -0.7, 0.2, 0.9, ., .
29. Cn1c(=O)c2c(nc(NCCO)n2CCCc2ccccc2)n(C)c1=O
 : 0.666, 2.0, 2.4, 6.1, -0.5, 0.6, 2.4, 1.6, i, 0.5
30. Cc1ccc(C)c(SCC(=O)Nc2cccc(S(=O)(=O)NC3=NCCCCC3)c2)c1
 : 0.701, -10.8, ., ., ., 0.9, 0.5, -2.3, ., .

# (more compounds)
# Results follow in this order: Ecoli growth, Beta apoptosis, Ecoli rRNA inh, Ecoli rRNA inh OD600, Ecoli rRNA inh RFP, A1 inh, UCH37 inh, T cruzi repl, FGF22 binding, MLL AF4-AF9 inh
31. COc1ccc(NC(=O)c2ccc(NS(=O)(=O)c3cccc4cccnc34)cc2)cc1
 : 0.702, ., -9.6, 1.0, 2.0, 0.4, 7.2, -0.9, i, 0.2
32. N#C/C(C(=O)N1CCCCC1)=C1\Nc2ccccc2S1
 : 0.736, 7.1, ., ., ., -4.2, 10.9, -7.2, ., .
33. C=CCN(c1ccc(F)cc1)S(=O)(=O)c1cc(C(=O)OCC(=O)N(C)C2CCS(=O)(=O)C2)ccc1Cl (centres undefined)
 : 0.722, -1.0, -4.5, 5.2, -1.4, -0.4, 4.5, 12.8, i, -12.1
34. O=S(=O)(Nc1ccncc1Cl)c1ccc2ccccc2c1
 : 0.668, -4.2, -13.8, -10.2, -5.8, 0.4, 4.0, -0.8, i, -3.0
35. COc1ccccc1-n1c(CNC(=O)c2ccco2)nnc1SCC(=O)Nc1ccc(F)cc1
 : 0.728, 1.9, ., ., ., -0.5, 1.3, -0.1, ., .
36. Clc1ccccc1-c1nc(-c2ccccc2)n[nH]1
 : 0.654, 0.0, ., ., ., -6.8, 4.6, -4.1, ., .
37. CCOc1ccc(NC(=O)c2cc(SC)ccc2Cl)cc1
 : 0.696, 4.6, ., ., ., 0.5, 4.5, 4.3, ., .
38. COc1cccc(/C=C/C(=O)OCC(=O)c2c[nH]c3ccccc23)c1OC
 : 0.723, -1.1, ., ., ., 0.9, -45.4, 3.7, i, 2.7
39. CC(C)(C)NS(=O)(=O)c1ccc(CCC(=O)Nc2cc(Cl)ccc2Oc2ccccc2)cc1
 : 0.763, 27.6, ., ., ., -0.3, 0.3, 34.6, ., .
40. O=C(NCCCN1CCOCC1)c1ccc2c(c1)N(Cc1ccccc1)CCS2
 : 0.697, 0.2, -13.8, -11.5, 6.4, 0.3, i, -0.9, i, -13.1
41. O=C(NCC1CCCO1)C1CCN(S(=O)(=O)c2ccc(Br)cc2)CC1 (centres undefined)
 : 0.676, ., 17.2, 11.8, -2.0, ?, 6.7, -4.5, i, 0.7
42. CCn1c2ccccc2c2cc(NC(=O)C(C)C)ccc21
 : 0.67, 5.3, ., ., ., 0.4, -8.2, 21.5, ., .
43. COc1ccc(C2CC3(O)CC(C#N)(C(=O)N3)C2(C#N)C#N)cc1 (centres undefined)
 : 0.675, -5.8, 5.5, 0.9, 1.0, 0.6, 6.3, -10.1, i, 8.3
44. Cc1ccc(-n2c(=S)[nH]c3sc4c(c3c2=O)CCc2ccccc2-4)cc1
 : 0.681, 2.4, 11.6, 6.8, -1.7, 0.7, 3.8, -14.6, i, -1.1
